Source: PubChem BioAssay (National Center for Advancing Translational Sciences (NCATS))
TSHR ag = activates the human thyroid stimulating hormone receptor; P16473; HEK293-CNG-TSHR cells (CNG channel as cAMP sensor), membrane potential dye, cAMP; Potency, µM (highest dose often 57.1 µM), inactives show at the top dose activation, actives largely listed as activators; actives 0.48% (n = 73,000); AID 926; active = well fitted activation curve of enough size with the parental cells flat; inconclusive = any curve in the parental cells; inactive = parental cells flat and receptor cells flat or falling; note: potency is the fitted concentration of half-maximal effect; % of control where 0% means no effect; weak receptor curves with flat parental cells got no call and are not listed
Target sequence (P16473 whole entry, looked up): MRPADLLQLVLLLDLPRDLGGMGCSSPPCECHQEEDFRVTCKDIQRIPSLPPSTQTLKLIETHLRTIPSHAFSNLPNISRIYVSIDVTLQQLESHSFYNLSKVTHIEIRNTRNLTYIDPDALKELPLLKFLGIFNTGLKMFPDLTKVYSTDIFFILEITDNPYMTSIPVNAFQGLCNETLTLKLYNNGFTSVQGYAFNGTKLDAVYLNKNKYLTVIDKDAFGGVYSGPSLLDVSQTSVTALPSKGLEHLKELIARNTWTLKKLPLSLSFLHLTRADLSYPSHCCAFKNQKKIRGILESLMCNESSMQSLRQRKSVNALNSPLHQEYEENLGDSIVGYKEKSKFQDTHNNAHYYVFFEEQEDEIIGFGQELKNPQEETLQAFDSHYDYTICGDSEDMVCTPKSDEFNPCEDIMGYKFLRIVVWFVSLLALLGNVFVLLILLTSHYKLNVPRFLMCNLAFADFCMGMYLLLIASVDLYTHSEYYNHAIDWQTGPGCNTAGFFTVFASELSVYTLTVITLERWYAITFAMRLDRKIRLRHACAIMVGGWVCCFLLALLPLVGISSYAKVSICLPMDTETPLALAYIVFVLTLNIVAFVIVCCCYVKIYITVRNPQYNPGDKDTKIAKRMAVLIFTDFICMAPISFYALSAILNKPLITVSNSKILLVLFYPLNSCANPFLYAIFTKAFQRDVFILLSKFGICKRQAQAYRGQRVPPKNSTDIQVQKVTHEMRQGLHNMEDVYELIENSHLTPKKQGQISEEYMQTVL
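HEK 293 cells stably expressing TSHR and a cAMP-gated CNG channel; parental CNG-only cells as counterscreen. Cells preloaded 60 min with membrane potential dye plus 100 uM RO 20-1724, then compound 30 min; fluorescence read at 590 nm.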
AID923 = qHTS Assay for Allosteric/Competitive Inhibitors of Caspase-1: Spectroscopic Profiling in AFC Spectral Region. compound fluorescence, AFC spectral region (405/520 nm); almost no hit is shown here. actives 1.1% (n = 75,000). Potency, µM (highest dose often 57.5 µM), inactives show at the top dose fluorescence increase, hits mostly activators; active = well fitted activation curve with a large enough effect; inconclusive = small, poorly fitted or top-dose-only effect;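 note: potency is the fitted concentration of half-maximal effect; 0% is about no effect; scaled to a free AFC standard on each plate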
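Titrations up to 57 uM read every 20 sec for 3 min (405/520 nm) with 50 nM caspase 1 and 5 uM Ac-WEHD-AFC, pH 7.5 HEPES buffer. Fluorescence-vs-time intercept gave baseline, scaled against on-plate AFC standard.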
A488 fluor = compound fluoresces in the A488 spectral region; compound autofluorescence, A488 spectral region, dye equivalency; stronger effect = higher value; max dye equivalency, M; actives 0.1% (n = 59,000); active = above 10 nM dye equivalent; inconclusive = 1 to 10 nM; inactive = 1 nM or less; about half of its hits are not listed in these tables;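 note: highest value over a series up to 38 µM; compound alone in buffer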
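Readout is A488 dye-equivalent concentration, calibrated by a per-plate six-point Alexa 488 series. Compounds in 100 mM Tris buffer pH 8.0 were incubated 15 min at room temperature. Plates were imaged using 480 nm excitation/540 nm emission filters.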
Resorufin autofl = resorufin region autofluorescence | Compound fluorescence, resorufin region 547/598 nm, buffer; stronger effect = higher value | max dye-equivalent concentration, M | actives 0.04% (n = 59,000) | AID 588; active = above 10 nM dye equivalent; inconclusive = 1 to 10 nM; inactive = 1 nM or less; a few of its hits are not listed in these tables; note: highest value over a series up to 38 µM
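Dye-equivalent concentration values derive from comparing each well's 547/598 nm fluorescence against resorufin standards included on every plate. Incubation was 15 min at room temperature in 100 mM Tris, pH 8.0.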
A647 fluor = A647 region autofluorescence; Compound fluorescence, A647 channel (570/671 nm), Tris buffer; max dye-equivalent concentration, M; 59,000 tested, under 10 active; AID 592; active means above 1 µM dye equivalent; inconclusive means 0.1 to 1 µM; inactive means 0.1 µM or less;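 note: values scaled relative to a standard on each plate; highest value over a series up to 38 µM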
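Fluorescence read (570 nm ex, 671 nm em) after 15 min RT incubation of compounds in 100 mM Tris buffer, pH 8.0; values expressed as dye-equivalent concentration against a six-point A647 standard series on each plate.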
An asterisk follows results filed as active; i = inactive; ? = inconclusive; / = not tested or not shown; [ ] = dose if it differs, or a comment. Only part of the results is shown; the hit share may differ from the screen's.

cpd	Compound	TSHR ag	AID923	A488 fluor	Resorufin autofl	A647 fluor
1	O=C(O)CCCN1CCCCC1	-6%[11.4 µM]	7.5%[11.5 µM]	i	i	1e-09
2	O=C(COc1ccccc1)N1CCN(S(=O)(=O)c2cccs2)CC1	2%	1.2%	/	/	/
3	CCOC(=O)CSc1nc2ccccc2n2cnnc12	-8%	-0.9%	i	i	2e-08
4	O=C(C1CC1c1ccccc1)N1CCOCC1 (stereo not drawn)	7%[11.4 µM]	1.5%	/	/	/
5	COc1ccccc1CNC(=O)c1ccc(NS(=O)(=O)c2c(C)noc2C)cc1	6%	2.3%	i	i	1e-09
6	CCn1c(CCCc2nc3c([nH]2)c(=O)n(C)c(=O)n3C)nc2c1c(=O)n(C)c(=O)n2C	-3%[11.4 µM]	-4.6%[11.5 µM]	i	i	1.3e-09
7	N#C[C@H]1CN[C@H](N)N[C@@H]1N	1%[11.4 µM]	-1.3%[11.5 µM]	i	i	2.1e-08
8	COC(=O)c1c(NC(=O)CN2CCC(C)CC2)c2c(C)cccc2n1C	21%	0.8%	i	i	7.3e-09
9	Cc1ccc(C(=O)CSc2nc(C)cc(SCc3nnc(-c4ccccc4)o3)n2)cc1	?	-1.9%	i	i	1e-09
10	CCc1ccc(NC(=O)CNS(=O)(=O)c2c(C)noc2C)cc1	?	0.3%	i	i	2.8e-08
11	CN1/C(=C\C(=O)COC(=O)CN2C(=O)C3CC=CCC3C2=O)C(C)(C)c2ccccc21 (stereo not drawn)	12%	3.3%	i	i	8.5e-09
12	O=c1c2ccccc2nc(-c2cccc(Cl)c2)n1O	0%	1.5%	i	i	5.3e-09
13	CCOC(=O)C(Cc1cc(C(C)=O)ccc1OCC)C(=O)OCC	24%	0.0%	i	i	1e-09
14	N#Cc1cccc(-c2nc(NCCN3CCOCC3)c3ccccc3n2)c1	0%	-0.1%	i	i	1e-09
15	Cn1c(C(=O)OCC(=O)NCCc2ccccc2)cc2sccc21	?	0.8%	i	i	2.8e-08
16	COc1ccc(C(=O)N(CCCO)Cc2cc3c(C)ccc(C)c3[nH]c2=O)cc1OC	-2%	-0.4%	i	i	1.9e-08
17	COc1ccc(OC)c(CCNC(=O)C2CCN(c3nnc(-n4cccc4)s3)CC2)c1	?	3.8%	/	/	/
18	Nc1ncnc2nc(Sc3ccc(Cl)cc3)[nH]c12	/	-2.1%	i	i	7e-08
19	Cc1occc1C(=O)NCc1cccc(CNC(=O)c2ccoc2C)c1	8%	0.0%	i	i	1e-09
20	Cc1ccc2cc(CN(Cc3ccco3)C(=O)C3CCCCC3)c(=O)[nH]c2c1C	?	-0.3%	i	i	1e-09
21	Cc1nc(N2CCOCC2)c2nc(-c3ccccc3)n(C(C)CN(C)C)c2n1 (stereo not drawn)	?	0.8%	/	/	/
22	OC(CN1CCN(c2cccc(C(F)(F)F)c2)CC1)c1c[nH]c2ccccc12 (stereo not drawn)	7%	1.1%	i	i	1e-09
23	CCN1C(=O)CC(N2CCC(Nc3ccc(F)cc3)CC2)C1=O (stereo not drawn)	-2%	-5.5%	i	i	3e-08
24	COc1ccccc1-n1c(CNc2c(C)cccc2C)nnc1SCC(=O)N1CCOCC1	-4%	-1.0%	i	i	1e-09
25	O=C(O)c1cc(-c2ccco2)[nH]n1	-3%	0.9%	i	i	1.2e-09
26	COc1ccc(NC(=O)C2CCCN(S(=O)(=O)c3cccnc3)C2)c(OC)c1 (stereo not drawn)	2%	3.0%	/	/	/
27	CCOC(=O)c1sc(NC(=O)CSc2nnc(Cc3ccccc3)o2)c(C#N)c1C	6%	1.8%	i	i	3.1e-09
28	CCNc1nc(C)cc(COC)c1C#N	-3%	-0.5%	/	/	/
29	CCC1(C)Cc2c(sc3c2c(=O)n(C)c2nnc(SCc4ccc5c(c4)OCO5)n32)CO1 (stereo not drawn)	/	/	i	i	1e-09
30	COc1ccc2[nH]cc(CCNc3cc(-c4ccccc4CN(C)C)ncn3)c2c1	?	7.6%	i	i	1e-09
31	CN1CCN(C(=O)c2ccc3c(c2)N(Cc2cccc(Cl)c2)C(=O)c2ccccc2S3=O)CC1 (stereo not drawn)	-2%	7.3%	/	/	/
32	O=C(NCC1CCCO1)c1cc(-c2ccco2)nc2ccccc12 (stereo not drawn)	18%	8.6%	i	i	1e-09
33	COc1cccc2c(=O)n(CC(=O)NC3CCCC3)ccc12	1.3µM*	-2.4%	/	/	/
34	COc1cc(C2C(C(=O)c3ccco3)=C(O)C(=O)N2CCc2ccccc2)ccc1O (stereo not drawn)	20%	-0.1%	i	i	2.9e-08
35	COCc1cc(C)nc(N)c1C#N	/	/	i	i	4.4e-09
36	Cc1cccc(OCCCN2CCCCCC2)c1	10%	1.7%	i	i	2.9e-08
37	COCCCNC(=O)CN(c1cc(OC)ccc1OC)S(=O)(=O)c1ccccc1	24%	1.3%	i	i	1e-08
38	Cc1ccc2nc(-c3cccc(NC(=O)c4ccco4)c3)[nH]c2c1	18%	-2.9%	i	i	3.7e-08
39	CCOC(=O)C1C2C=CC3(CN(CCc4ccccc4)C(=O)C13)O2 (stereo not drawn)	6%	0.1%	i	i	4.1e-08
40	O=C1c2ccccc2C(=O)N1CCCSc1nc2ccccc2o1	?	0.6%	/	/	/
41	CC(=O)OCC[N+](C)(C)C	/	3.9%	i	i	1e-09
42	N=c1n(CCN2CCOCC2)c2ccccc2n1Cc1ccccc1Br	5%	1.9%	i	i	1.1e-08
43	CC(=O)c1cc2c(cc1N)OCO2	8%	0.4%	i	i	1e-09
44	O=C(CN1C(=O)NC2(CCCCC2)C1=O)Nc1ccccc1Cl	1%	-1.6%	i	i	1.5e-08
45	Cc1cc(N2C3CCC2CC(O)(c2ccc(F)cc2)C3)nc(-c2ccccc2)n1 (stereo not drawn)	11%	-0.6%	i	i	1e-09
46	O=C(CSc1cccc2cccnc12)NCc1ccco1	-1%	-1.4%	i	i	2.5e-08
47	CCOCCn1c(-c2ccc(OC)cc2)nc2ccccc21	1%[11.4 µM]	7.7%	/	/	/
48	CCCCCn1c(=O)[nH]c2c(c1=O)CCC2	10%	0.3%	i	i	6.4e-08
49	CC(C)(C)C(=O)NC1CCN(C(=O)N2CCCC2)CC1	-6%	1.9%	i	i	8.7e-09
50	C=CC(=O)OCCCCCCOC(=O)C=C	?	1.4%	/	/	/
51	COCCSc1ccccc1C(=O)N1CCN(Cc2ccc3c(c2)OCO3)CC1	9%	1.5%	i	i	5.6e-09
52	COc1ccccc1OCC(=O)OCC(=O)Nc1ncc(Cl)cc1Cl	3%	-1.9%	i	i	1.7e-08
53	CCn1c(CN2CCCCCC2=O)nnc1SCc1cnc(-c2ccccc2)s1	3%	-0.3%	i	i	2.6e-09
54	CCCCOC(=O)CNc1nnc(SCC(=O)OCC)[nH]c1=O	?	-1.4%	i	i	1e-09
55	Cc1ccc2cc(C#N)c(SCC(=O)NCC3CCCO3)nc2c1 (stereo not drawn)	-3%	-0.6%	i	i	1.9e-08
56	Cc1cnc(C(=O)OCC(=O)Nc2cc(Cl)cc(Cl)c2)cn1	-2%	1.1%	i	i	1e-09
57	CC(C)(C)n1ncc2c(=O)n(CC(=O)NCCc3ccccc3)cnc21	2%	0.1%	i	i	1.5e-08
58	CCN(CC)CCCNC(=O)c1nn(-c2ccc(OC)cc2OC)c(=O)c2ccccc12	1%[11.4 µM]	-0.9%	i	i	1.8e-09
59	CCC1CCCCN1C(=O)Cn1c(=O)n(CCC(=O)NCc2ccco2)c(=O)c2sccc21 (stereo not drawn)	3%	1.6%	i	i	5.7e-09
60	COCCNc1ncnc2ccc(-c3cccnc3)cc12	7%	-2.6%	i	i	1.2e-09

Profiles as entered above. Screens in order: TSHR ag | AID923 | A488 fluor | Resorufin autofl | A647 fluor
Record of CCn1c(CN2CCCCCC2=O)nnc1SCc1cnc(-c2ccccc2)s1 → 3% | -0.3% | i | i | 2.6e-09
Record of COc1ccccc1OCC(=O)OCC(=O)Nc1ncc(Cl)cc1Cl → 3% | -1.9% | i | i | 1.7e-08
Record of CCOCCn1c(-c2ccc(OC)cc2)nc2ccccc21 → 1%[11.4 µM] | 7.7% | / | / | /
Record of COCCSc1ccccc1C(=O)N1CCN(Cc2ccc3c(c2)OCO3)CC1 → 9% | 1.5% | i | i | 5.6e-09
Record of CC(C)(C)C(=O)NC1CCN(C(=O)N2CCCC2)CC1 → -6% | 1.9% | i | i | 8.7e-09

Other compounds follow.
cpd	Compound	TSHR ag	AID923	A488 fluor	Resorufin autofl	A647 fluor
61	CCc1cc2cc(C)ccc2nc1SCC(=O)N1CCN(C(=O)c2ccco2)CC1	?	0.1%	i	i	3.2e-08
62	CC1(C)Cc2c(sc3nc4n(c(=O)c23)CCC4)CO1	/	/	i	i	4.9e-09
63	Cc1ccc(N2C(=O)[C@@H]3[C@H](C2=O)C2CCCN2[C@@H]3C(=O)c2ccccc2)cc1 (stereo partly drawn)	/	/	i	i	3.4e-08
64	CN=CC1=C(O)CC(C)(C)CC1=O	17%	-0.6%	i	i	2.4e-08
65	COc1ccccc1C1C2=C(N=C3SCC(=O)N31)c1ccccc1CC2 (stereo not drawn)	9%	-0.1%	i	i	7.2e-09
66	O=C1CC(c2ccsc2)c2cc3c(cc2N1)OCCO3 (stereo not drawn)	7%	-2.2%	/	/	/
67	COc1cccc(OCCOCCNCCO)c1	?	0.6%	/	/	/
68	CCOC(=O)c1c(C2CC2)csc1NC(C)=O	22%	-1.4%	i	i	1e-09
69	COc1ccc(NC(=O)CN(c2cc(C)cc(C)c2)S(=O)(=O)c2c(C)noc2C)cc1	26%	4.2%	/	/	/
70	CC(C)Cc1nc2oc3c(N4CCN(CCO)CC4)ncnc3c2c2c1CCCC2	?	2.7%	i	i	6.4e-09
71	Oc1ccccc1-c1cc(C(F)(F)F)[nH]n1	-23%	1.0%	i	i	3.2e-08
72	CS(=O)(=O)N(CC(=O)N1CCN(c2cccc(Cl)c2)CC1)c1cccc(F)c1	20%	-0.4%	i	i	3.9e-09
73	COC(=O)c1ccccc1N(C)S(C)(=O)=O	2%	-1.6%	i	i	2.6e-08
74	CC1(C)C(=O)NC2=C1C(=O)C(=O)c1ccccc12	-11%	13%	/	/	/
75	CCc1cccc(C)c1NC(=O)CSc1nnc(-c2ccco2)n1N	21%	-0.2%	i	i	1.4e-08
76	O=C(CSc1nccc(=O)[nH]1)Nc1ccc(F)c(Cl)c1	-2%	-1.3%	i	i	6.1e-09
77	C[C@H](O)[C@@H]1C(=O)N2C(C(=O)O)=C(SCCN=CN)C[C@@H]12	-9%[25.6 µM]	3.7%[25.7 µM]	i	i	2.9e-08
78	CCN1CCN(S(=O)(=O)c2cc(OCC(=O)NC3CCCCC3)c(C)cc2Cl)CC1	18%	2.4%	i	i	1.5e-08
79	Cc1cccc(NC(=O)C2CCN(S(=O)(=O)c3c(C)nn(C)c3C)CC2)n1	3%	0.6%	/	/	/
80	Cc1cc(NC(=O)CSc2n[nH]c(CC(C)C)n2)no1	-1%	1.0%	i	i	1e-09
81	O=C1c2ccccc2C(O)N1Cc1ccco1 (stereo not drawn)	-4%	-2.2%	/	/	/
82	CC(=O)c1sc2nc(-c3cccs3)cc(C(F)(F)F)c2c1N	-1%	21%	?	i	1e-09
83	COc1ccc(N2C(=O)CSC23CCCCC3)cc1	24%	-1.1%	i	i	1e-09
84	O=C(O)c1ccc(S(=O)(=O)c2ccc3c(c2)C(=O)N(Cc2ccco2)C3=O)cc1	32µM*	-1.3%	i	i	4.1e-08
